From PubChem
RanGTP-Impb inh: inhibitors of RanGTP-importin-beta interaction, primary screen, biochemical, FRET, CFP-Ran, YFP-importin-beta, homogeneous. cell-free CFP-Ran/YFP-importin-beta FRET ratio. inhibition, % (no concentration beside the values). actives 1.1% (n = 300,000). AID 2216;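 active means most replicates above 15%; inconclusive means exactly half above 15%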;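 further: 0% = DMSO wells and 100% = Ran loaded with GDP instead of GTP; wells of about 40 µL received 100 nL stock; the first replicate is given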
Calb FLC: affects C. albicans growth with fluconazole | actives 0.57% (n = 300,000) | growth inhibition, % (test concentration not listed) | AID 1979 | C. albicans CaCi-2 (fluconazole-resistant clinical isolate) + fluconazole, Alamar Blue growth, 48 h;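 active means most replicates above 75%; inconclusive means exactly half above 75%; inactive means most below 75%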;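 further: all wells also contain fluconazole at 8 µg/ml as a sub-toxic cotreatment; 0% = median of DMSO wells and 100% = median of geldanamycin control wells; wells of about 8 µL received 7.5 nL stock; the first replicate is given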
LANA-H2B inh: blocks KSHV LANA binding to histone H2A/H2B; Q9QR71; cell-free LANA-H2A/H2B peptide, fluorescence polarization; inhibition, % (no concentration beside the values); actives 0.6% (n = 320,000); AID 2629; in the data active means inhibition mostly above about 10%, no sharp cut-off; inactive means mostly below about 6.7%;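 further: stock transfer was 7.5 nL into about 10 µL; 0% = median of vehicle wells and 100% = median of positive control wells; one replicate is shown; the record names a cut of 25% in any replicate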
Target sequence (Q9QR71 whole entry, looked up): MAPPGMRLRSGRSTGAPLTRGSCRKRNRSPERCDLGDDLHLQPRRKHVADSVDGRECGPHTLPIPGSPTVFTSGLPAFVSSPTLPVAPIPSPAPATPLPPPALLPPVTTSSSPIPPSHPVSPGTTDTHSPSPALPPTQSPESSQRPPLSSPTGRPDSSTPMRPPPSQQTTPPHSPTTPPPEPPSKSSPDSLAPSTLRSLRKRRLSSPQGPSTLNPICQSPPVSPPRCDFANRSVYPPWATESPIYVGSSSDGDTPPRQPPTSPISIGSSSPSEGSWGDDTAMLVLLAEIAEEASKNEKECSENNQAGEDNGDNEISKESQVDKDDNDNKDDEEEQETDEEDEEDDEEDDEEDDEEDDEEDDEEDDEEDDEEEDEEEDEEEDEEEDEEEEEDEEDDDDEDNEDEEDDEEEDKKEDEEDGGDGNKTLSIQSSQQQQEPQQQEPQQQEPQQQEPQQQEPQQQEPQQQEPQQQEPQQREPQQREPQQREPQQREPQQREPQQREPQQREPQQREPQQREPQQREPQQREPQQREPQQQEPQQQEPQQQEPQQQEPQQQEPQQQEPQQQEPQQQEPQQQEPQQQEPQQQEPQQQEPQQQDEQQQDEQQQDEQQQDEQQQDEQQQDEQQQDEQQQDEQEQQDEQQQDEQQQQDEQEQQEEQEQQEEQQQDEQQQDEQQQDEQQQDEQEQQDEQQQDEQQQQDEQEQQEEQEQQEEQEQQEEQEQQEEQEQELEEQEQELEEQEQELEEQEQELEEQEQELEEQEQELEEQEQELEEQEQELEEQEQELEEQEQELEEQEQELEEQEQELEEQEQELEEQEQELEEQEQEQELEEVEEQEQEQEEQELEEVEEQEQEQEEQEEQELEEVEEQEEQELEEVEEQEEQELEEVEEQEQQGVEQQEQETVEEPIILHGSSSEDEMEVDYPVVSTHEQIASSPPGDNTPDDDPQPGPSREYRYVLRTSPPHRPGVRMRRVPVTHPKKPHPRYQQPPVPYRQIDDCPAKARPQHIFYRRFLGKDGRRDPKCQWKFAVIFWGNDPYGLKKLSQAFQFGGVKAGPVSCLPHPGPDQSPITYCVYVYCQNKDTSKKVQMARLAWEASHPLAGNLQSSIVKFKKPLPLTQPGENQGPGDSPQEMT
Bfl-1 A1 inh: inhibitors of the anti-apoptotic protein A1, read as caspase activation; MEF A1-2A-BIM cells, Caspase-Glo 3/7 luminescence, 3 h; percent of clofoctol response, vehicle zero; caspase activation, % (test concentration not listed); actives 0.066% (n = 330,000);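 active means over half of replicate activation scores above 10%, or exactly half above 10 with the replicate mean above 10; inconclusive means replicate mean below 10 yet half the replicates above 10; inactive means over half of replicates below 10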;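 further: wells of about 30 µL received 50 nL stock; many hits fall short of the cut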
AF4-AF9 inh: MLL-AF4/AF9 protein interaction inhibition | P42568 | AlphaScreen, biotin-AF4 peptide binding to FLAG-AF9 | inhibition, % at 10 µM | actives 0.47% (n = 350,000);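 active means every replicate reaching a set inhibition limit, whatever the replicate mean, cut at about 25% in these data; inconclusive means mean inhibition reaches that limit but some replicates miss it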;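 further: 0% = plate neutral control median and 100% = total signal loss; the record names both 10 and 1 µM as test concentration; the first replicate is given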
T cruzi inh: blocks replication of Trypanosoma cruzi; actives 1.4% (n = 300,000); T. cruzi beta-gal in NIH3T3, luminescence, 90 h; inhibition, % (no concentration beside the values);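 active means mean inhibition across valid replicates above about 55%, limit read from the data; inconclusive means mean below that limit but half or more replicates reach it; inactive means mean below it, under half of replicates reach it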;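 further: signal also drops with host cell toxicity which is not excluded here; 0% = plate median of DMSO wells and 100% = zero luminescence signal; higher percent means less beta-gal luminescence so fewer parasites; stock transfer was 50 nL into about 50 µL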
Vif A3G: HIV-1 Vif–A3G interaction blockers – biochemical, TR-FRET, GST-Vif 1-94, biotin-A3G peptide, dose response retest, primary screen (AID 1117319); TR-FRET GST-Vif / biotin-A3G peptide binding; higher % means a stronger effect; test concentration not given here; strong numbers were not always called active; actives 0.57% (n = 260,000); inhibition, %; hits with a dose series show IC50 in µM;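 active means above the screen mean plus three standard deviations and confirmed in dose response; inconclusive means results disagree or hit not tested in dose response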;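 further: Vif residues 1-94 fused to GST binding biotinylated APOBEC3G peptide 110-148; 0% = full assay without inhibitor and 100% = GST in place of GST-Vif; retest series ran down from 100 µM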
Beta cell apopt: blocks beta cell apoptosis; actives 0.8% (n = 300,000); INS-1E cytokine-induced death, ATP luminescence, 48 h; percent of positive-control rescue, neutral wells zero; protection from apoptosis, % (test concentration not listed); AID 435005;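 active means all replicates at 75% or more, or half of them and the mean; inconclusive means half reach 75% but not the mean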;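 further: 0% = cytokine-treated negative control wells and 100% = positive control rescue; higher means more ATP so stronger rescue from cytokine killing; wells of about 40 µL received 100 nL stock; the first replicate is given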
An asterisk follows results filed as active; ? = inconclusive; nt = no result given.

SMILES,RanGTP-Impb inh,Calb FLC,LANA-H2B inh,Bfl-1 A1 inh,AF4-AF9 inh,T cruzi inh,Vif A3G,Beta cell apopt
COc1cc(NC(=O)COC(=O)c2ccc(C)c(S(=O)(=O)N3CCCCC3)c2)c(C)cc1[N+](=O)[O-],-2.7,-4,6.7,0.1,7.2,2,nt,7
Cc1ccccc1C(=O)Nc1nnc(-c2ccc(F)cc2)o1,1.6,89*,-2.9,-0.4,1.5,18,1%,9
Cc1ccc2oc(=O)cc(CN3CCN(Cc4ccccc4)CC3)c2c1,3.1,0,-5.9,1.7,-1.3,53,1%,0
O=C(CCNC(=O)c1ccc(Br)cc1)NCCCSc1ccccc1,-2.0,-11,3.5,-0.5,-0.5,-14,-7%,-4
COC(=O)Cn1c2ccc(C)cc2c2nc(C)sc21,7.9,1,nt,nt,nt,-21,3%,nt
CSc1nc(-c2ccccc2)nc(N2CCN(C)CC2)c1C(C)=O,70*,17,3.5,-0.3,nt,36,2%,4
COc1cc(=O)n2c(n1)SCCC2,1.5,8,1.6,-0.6,nt,-8,23%,5
O=C(Cn1c(=O)oc2ccccc21)NCC1COc2ccccc2O1 (stereo not given),4.9,1,-2.7,1.0,1.7,-11,-6%,4
C=CCSc1nc2c(cnn2-c2ccccc2)c(=O)n1N,4.1,2,-2.5,-3.1,-4.5,-28,nt,4
CCCCCCCCN1C(=O)N(C)C(N(O)C(=O)NC)C1(C)C (stereo not given),-3.9,12,0.9,-0.5,nt,-8,-8%,-10
CCCCCCCCC1=NCCc2c1[nH]c1ccccc21,?,34,-0.1,-0.7,8.8,23,1%,9
CC(C)(C)NC(=O)c1ccccc1NC(=O)c1ccc2c(c1)OCO2,-0.1,-3,-3.6,-0.2,-4.0,-1,nt,-9
Cc1c(C(=O)NC2CCCc3ccccc32)oc2ccc(S(=O)(=O)N3CCCCC3)cc12 (stereo not given),0.6,15,3.6,-0.2,nt,3,nt,4
Cc1ccc(C(=O)COC(=O)CNC(=O)COc2ccccc2C)cc1C,10,-32,1.0,-1.3,nt,-12,-2%,-3
COc1ccc(C2=NN(C(=O)c3ccccc3)C(c3ccc(OC)c(OC)c3)C2)cc1OC (stereo not given),3.5,-2,nt,nt,0.5,-2,1%,nt
COc1ccccc1/C=C/c1nc2ccccc2c(=O)o1,-1.5,2,2.5,-6.2,-2.1,5,-5%,1
C=CCNC(=S)NNC(=O)c1ccc(OC(C)C)cc1,3.8,13,1.3,0.1,nt,5,-3%,-6
O=S1(=O)N=C(N/N=C/C=C/c2ccccc2)c2ccccc21,0.5,13,-2.9,0.3,nt,-14,nt,-1
C=CCc1c(C)nc(C)nc1N/N=C/c1ccccc1O,6.2,-18,-3.8,-0.2,nt,-8,28%,5
Cc1cccc(-c2nnc(SCC#N)n2-c2ccccc2)c1,?,18,0.7,0.2,nt,8,28%,-3
COc1cc(C(=O)NNC(=O)c2ccc(NC(C)=O)cc2)cc(OC)c1OC,7.1,-27,0.3,-0.3,-2.6,-17,2%,-6
CC(C)=C1SC(N2CCN(c3cccc(C(F)(F)F)c3)CC2)=NC1=O,-0.7,-2,3.1,0.2,nt,15,2%,-5
C=C(C)CNC(=S)Nc1cccc(S(=O)(=O)NC2=NCCC2)c1,1.4,-6,-4.0,1.4,-2.0,-18,2%,-5
Cc1cccc(NC(=O)CCC(=O)c2cccs2)n1,-0.3,-5,0.1,0.1,-0.2,-5,12%,1
O=[N+]([O-])c1ccc2nc(C(O)C(O)c3nc4ccc([N+](=O)[O-])cc4[nH]3)[nH]c2c1 (stereo not given),2.7,3,2.7,-0.4,-0.8,1,nt,-2
COc1ccc(CCC(=O)N(C)CC(=O)Nc2ccc(N3CCOCC3)cc2)cc1,-2.9,2,-0.1,-0.2,-0.9,4,1%,-5
O=C(Nc1nnc(C2CCCCC2)s1)c1cccs1,1.2,-11,1.9,-2.8,nt,11,8%,9
Cc1cc(C)nc(SCCCNCc2c(F)cccc2Cl)n1,-2.5,-9,6.5,0.9,-9.2,22,16%,nt
CCOc1ccc(NS(=O)(=O)c2ccc(NS(C)(=O)=O)cc2)cc1,8.4,nt,-1.0,0.3,nt,-18,8%,-2
CCCN1C(=O)/C(=C\C=C2\N(CC)c3ccccc3C2(C)C)SC1=S,-43,-1,nt,nt,-0.9,44,6%,nt
NS(=O)(=O)c1cccc(NC(=O)CCN2C(=O)C3CCCCC3C2=O)c1 (stereo not given),nt,nt,3.0,0.4,-5.1,nt,-3%,4
CC(=O)Oc1c(C)c(=O)n(C)c2ccccc12,11,-2,3.6,0.0,1.1,-19,nt,-3

3 of the entries above in order of the LANA-H2B inh value, largest number first.
canonical_smiles | LANA-H2B inh
O=[N+]([O-])c1ccc2nc(C(O)C(O)c3nc4ccc([N+](=O)[O-])cc4[nH]3)[nH]c2c1 (stereo not given) | 2.7
O=C(Nc1nnc(C2CCCCC2)s1)c1cccs1 | 1.9
CCOc1ccc(NS(=O)(=O)c2ccc(NS(C)(=O)=O)cc2)cc1 | -1.0

(cont.)
SMILES,RanGTP-Impb inh,Calb FLC,LANA-H2B inh,Bfl-1 A1 inh,AF4-AF9 inh,T cruzi inh,Vif A3G,Beta cell apopt
CC(=O)C1=C(C)Nc2ncnn2C1c1ccc(O)cc1 (stereo not given),11,nt,1.1,0.3,-1.5,-22,-3%,3
CCOC(=O)C1CCCN(S(=O)(=O)c2ccc3c(c2)NC(=O)CO3)C1 (stereo not given),4.6,2,nt,nt,-0.1,-11,nt,nt
CCN(CC)C(=O)Cn1cc(S(=O)(=O)CC(=O)NCCc2ccc(OC)c(OC)c2)c2ccccc21,-0.5,1,4.8,-0.5,-2.1,-2,-13%,-6
O=C(O)c1ccccc1OCC1CCCO1 (stereo not given),5.7,9,-1.6,-0.5,-0.5,-2,-2%,-2
CCC1CCc2sc(C(=O)NCc3ccccn3)cc2C1 (stereo not given),1.1,-15,-6.7,0.4,-0.3,24,2%,0
Cn1cccc1CC(=O)NNC(=O)Nc1cccc(Cl)c1,-1.0,15,-2.0,1.8,4.4,-9,6%,-4
COc1ccc(C(=O)NCN2CCN(c3ccccc3)CC2)cc1OC,nt,nt,-1.2,-0.3,1.8,nt,-9%,3
Cc1ccnc(NC(=O)c2ccc(Cl)c(NC(=O)C(C)Oc3ccccc3)c2)c1 (stereo not given),5.0,-8,-2.5,-0.5,-8.6,16,12%,-15
O=C(C1=C[C@@H]2[C@H]3C(=O)N(c4cccc(Cl)c4)C(=O)[C@H]3[C@@H](C(=O)c3ccc(Cl)cc3)N2C=C1)c1ccccc1,?,-3,-0.3,-0.7,nt,-1,7%,-11
COc1ccccc1CNC(=O)CCCNC(=O)c1ccc(Cl)cc1,-2.4,-3,4.9,-1.6,-6.7,-9,nt,3
CC(C)(C#N)Cc1cc(CC(C)(C)C#N)cc(C(C)(C)C)c1,-0.3,7,-5.9,1.6,nt,0,nt,2
O=C(c1cccc(S(=O)(=O)Nc2ccccc2F)c1)N1CCN(c2ccccc2F)CC1,-3.9,13,-3.0,0.5,-0.8,12,-5%,0
S=C(NCCc1ccccc1)NCc1ccccc1Cl,6.7,-1,-6.2,-0.3,0.1,11,-1%,-6
COc1ccccc1CCC(=O)Nc1ccc(C)cc1Cl,-2.3,-4,0.9,0.0,-1.9,-6,-4%,2
CCC(=O)NC(=S)Nc1ccc(NC(=O)COc2ccc([N+](=O)[O-])cc2)cc1,3.1,-4,-4.9,0.4,-0.4,7,-2%,-1
COc1ccccc1N1CCN(C(CNC(=O)c2ccco2)c2cccnc2)CC1 (stereo not given),-2.4,-5,-3.0,-0.2,-6.2,29,-1%,-3
COc1ccc(CCNC(=O)COC(=O)c2cnc(C)cn2)cc1,2.8,5,2.0,0.9,nt,-9,15%,-4
CCN(C(=O)COC(=O)c1cc(S(=O)(=O)N(C)C)ccc1Cl)C1CCS(=O)(=O)C1 (stereo not given),4.0,-2,-1.4,1.1,-0.3,-10,3%,1
CCCOc1ccccc1C1C(C(=O)OC)=CN(C(C)C)C=C1C(=O)OC,115*,-21,4.3,0.4,nt,17,10%,4
CCOC(=O)[C@H]1[C@H]2COc3ccc(Br)cc3[C@@H]2N2C(=O)CN(Cc3ccco3)C(=O)[C@@]12C,nt,nt,4.9,-0.2,2.8,nt,nt,-6
Cc1nc(C)n(C(=O)N(c2ccccc2)c2ccccc2)n1,-1.5,-2,1.0,-1.1,nt,12,1%,-6
Cc1cccc(NC(=O)C2CCC(CNC(=O)[C@@H]3Cc4ccccc4CN3)CC2)c1 (stereo not given in full),-1.3,nt,-1.3,0.5,-0.2,1,-2%,-5
O=C(OCc1c(-c2ccccc2)ncc2ccccc12)c1cccs1,nt,nt,-8.1,1.6,-19,nt,nt,0
Cc1cc(NC(=O)CCC(=O)N(c2cccnc2)C(C(=O)NC2CCCC2)c2ccccc2)no1 (stereo not given),1.0,-5,1.1,-0.2,nt,-14,2%,-4
COc1cccc(C(=O)N(C)CC2CCN(CCc3cccc(C(F)(F)F)c3)CC2)c1,0.2,-3,-2.0,0.4,-6.4,39,nt,-1
CC(=O)N1c2ccc(S(=O)(=O)N3CCCCC3)cc2CC1C(=O)Nc1ccccc1C(F)(F)F (stereo not given),1.7,0,0.7,0.7,1.3,-14,nt,nt
O=C(CS(=O)c1ccccc1[N+](=O)[O-])Oc1ccc(Br)cc1 (stereo not given),-0.1,-2,4.7,1.4,-2.3,-7,8%,-3
CC(C)c1nnc(NC(=O)CCC(=O)N2CCN(Cc3ccccc3)CC2)s1,?,1,0.5,0.5,nt,10,-1%,1
CCc1ccc2[nH]c(=O)c(C(c3nnnn3CC3CCCO3)N3CCN4CCCC4C3)cc2c1 (stereo not given),5.6,2,-6.5,0.1,nt,-31,7%,-4
O=C(CSc1nc(-c2ccccc2)c(-c2ccccc2)[nH]1)N1CCN(S(=O)(=O)c2ccccc2)CC1,2.8,44,0.9,-0.1,nt,27,13%,1
O=CNCCCc1nc2ccccc2n1Cc1ccccc1,-0.2,6,4.0,0.0,nt,-15,33%,-4
Cc1ccc(C)c(-n2c(SCC(=O)O)nc3sc4c(c3c2=O)CCCC4)c1,5.4,16,3.4,0.0,4.8,6,nt,-2
O=C(CSc1nc(NS(=O)(=O)c2ccccc2)cc(=O)[nH]1)Nc1cccc(C(F)(F)F)c1,-3.0,-8,nt,nt,-3.8,-5,1%,nt
O=C(NCc1ccc2c(c1)OCO2)c1ccc(S(=O)(=O)N2CCCCC2)cc1,-1.3,-13,1.4,-1.4,nt,-10,22%,0

This is a random part of the collection (roughly 4.3% active in at least one column).
